# Compound activity: PubChem, National Center for Advancing Translational Sciences (NCATS)
# Rango complex inh – inhibitors of Rango-importin beta complex formation. 340,000 tested, 0.031% active. Rango CFP/YFP FRET sensor + importin beta, 45 min. AID 540263. Q14974. Potency, µM (highest dose often 92.2 µM), for the others: at the highest dose inhibition of complex formation; active = rising FRET ratio curve, often small or poorly fitted; inconclusive = mostly compound fluorescence or quenching in the first reads; inactive = flat curves in all reads;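 also: potency is read from the fitted curve at half-maximal effect; 0% = DMSO wells and 100% = buffer wells lacking importin beta; nearly all actives have a fitted effect of over 15% in size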
#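 FRET biosensor Rango (snurportin 1 IBB between N-terminal EYFP and C-terminal Cerulean), 50 nM in PBS/1 mM DTT/0.02% Tween-20/0.1% BSA, preincubated 5 min RT with compound; 0.125 microM importin beta added, 45 min RT, CFP/YFP FRET ratio read.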
# GLA inh pH 4.5 – inhibitors of human alpha-galactosidase A at pH 4.5; P06280; purified enzyme, 4-MU-alpha-Gal fluorescence, pH 4.5; activity change, negative = inhibition, % at 105 µM; 230,000 tested, under 10 active; inconclusive = small, poorly fitted or top-dose-only inhibition, or a rising curve; inactive = flat fitted curve, though single readings scatter; no compound was filed as active;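 also: 0% = full activity with enzyme and -100% = basal without enzyme; dose as in the result columns while the protocol names 77 µM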
# Target sequence (P06280 whole entry, looked up): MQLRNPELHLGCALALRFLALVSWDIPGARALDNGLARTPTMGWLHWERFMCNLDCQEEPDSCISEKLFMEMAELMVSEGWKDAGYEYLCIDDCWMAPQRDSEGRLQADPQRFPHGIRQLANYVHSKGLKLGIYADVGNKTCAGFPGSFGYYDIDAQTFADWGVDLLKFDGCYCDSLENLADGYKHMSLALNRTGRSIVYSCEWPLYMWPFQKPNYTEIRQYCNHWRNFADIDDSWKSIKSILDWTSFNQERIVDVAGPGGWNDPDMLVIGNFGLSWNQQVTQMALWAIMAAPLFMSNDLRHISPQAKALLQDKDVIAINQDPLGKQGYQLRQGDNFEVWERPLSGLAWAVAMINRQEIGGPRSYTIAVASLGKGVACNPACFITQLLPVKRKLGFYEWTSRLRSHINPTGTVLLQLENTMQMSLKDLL
# miR-21 reporter – raises the signal of a miR-21 reporter | HeLa miR-21 FLuc reporter, luciferase, 48 h | Potency, µM (series often up to 38.3 µM), for the others: at the top dose reporter change, positive = more light | 340,000 tested, under 10 active; active = well fitted rising curve with a large enough effect; inconclusive = small, poorly fitted or top-dose-only effect; inactive = no such curve, though single readings can be large or run the other way;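 also: % of control where 0% means no effect; miR-21 action dims this reporter so a rising signal means less miR-21 action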
#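 Luminescence from a firefly luciferase reporter carrying a miR-21 binding site downstream, stably expressed under a CMV promoter in HeLa cells that make miR-21 endogenously, reports miRNA modulation after 48 h compound exposure up to approximately 40uM final.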
# Rango release inh – inhibitors of RanGTP-induced Rango-importin beta complex dissociation | Biochemical FRET Rango-importin beta, RanGTP-induced dissociation | O95149+P62826 | 340,000 tested, 0.071% active | Potency, µM (titrated, usually from 46.1 µM), for inactives: at the highest dose activity change, negative = inhibition; active means falling FRET ratio curve, often poorly fitted, with flat reads before Ran was added; inconclusive means other falling curves, or compound fluorescence or quenching; inactive means flat or rising ratio curve;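 also: potency is read from the fitted curve at half-maximal effect; % of control where 0% means no effect; nearly all actives have a fitted effect of over 45% in size; -100% = wells without RanGTP and RCC1; the record marks most hits as doubtful in a second field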
#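 Compounds sat 5 min at room temperature with 0.1 uM Rango biosensor plus 0.25 uM importin beta, then FRET pre-read. RanGTP-RCC1 (0.6 uM Ran, 2mM GTP, 0.2 uM RCC1) added for 45 min, and the CFP/YFP post-read measured blocked complex dissociation.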
# Active calls of the source: *; ? = inconclusive; . = not tested or not shown; & = joins results of further samples.
Rango complex inh | miR-21 reporter | Rango release inh | GLA inh pH 4.5 | Molecule
1.0% | -4% | 1% | 5 | O=C(NCC1COc2ccccc2O1)C1C2C=CC3(CN(Cc4cccs4)C(=O)C13)O2 (stereo unspecified)
0.8% | -1% | 7% | -3 | Cc1[nH]c2ccccc2c1C(=O)COC(=O)c1c(-c2ccccc2Cl)noc1C
-1.3% | . | 4% | . | COc1cc(S(=O)(=O)N2CCOCC2)cc(C(=O)OCC(=O)NCc2ccco2)c1OC
6.8% | -10% | 20% | . | CCN(CC)CCN1C(=O)C(=O)/C(=C(/O)c2ccc(S(=O)(=O)N3CCOCC3)cc2)C1c1ccccc1 (stereo unspecified)
? | . | 28% | . | COc1cccc(/C=N/Nc2ccc(S(=O)(=O)Nc3ccccc3C(=O)O)cc2[N+](=O)[O-])c1O
-4.1% | 1% | 13% | -6 | COc1cccc(/C=N/NC(=O)CN(CCc2ccccc2)S(=O)(=O)c2ccc(NC(C)=O)cc2)c1
0.0% | 1% | -8% | -9 | Cc1ccc(-n2c(N)c(C(=O)NCc3ccco3)sc2=S)cc1
-2.1% | 2% | 11% | 6 | CNC(=S)Nc1cccc(Cl)c1C
-2.0% | -55% | 11% | . | Cc1cccc(NC(=O)N2CCCCCC2)c1
0.1% | 0% | 4% | . | COc1ccc(OC)c(CC(NC(C)=O)C(=O)NC2CCN(S(=O)(=O)c3ccc(NC(C)=O)cc3)CC2)c1 (stereo unspecified)
3.8% | -2% | 10% | . | O=C(O)c1ccc(Nc2nc3ccc(Cl)cc3[nH]2)cc1
5.6% | -2% | 5% | -1 | Cc1ccc(NC(=S)N2CCN(c3ccccn3)CC2)c(C)c1
1.1% | -18% | 7% | -4 | O=[N+]([O-])c1ccc(Sc2nccn2Cc2ccccc2)cc1
0.3% | -5% | -12% | . | COc1ccc(-c2nn(-c3ccccc3)cc2/C=N/O)cc1OC
0.6% | -13% | -8% | 9 | COc1cc(NC(=O)c2ccc(F)cc2)c(OC)cc1NC(=O)CN1CCOCC1
1.5% | 6% | 6% | -6 | COC(=O)c1sccc1NC(=O)CN(C)NS(=O)(=O)c1ccc(F)cc1
0.3% | -9% | -5% | -1 | CCCS(=O)(=O)N1CCN=C1SCc1cccnc1
6.6% | -17% | -1% | 4 | Cc1nn(CCC(=O)NNC(=S)Nc2cccc(Cl)c2)c(C)c1[N+](=O)[O-]
4.8% | 0% | 13% | . | O=C(O)c1cc([N+](=O)[O-])ccc1NCc1cccnc1
-0.7% | . | -1% | . | CCOc1ccc(C(=O)NCC(=O)N2CCCCCCC2)cc1OCC
1.4% | 0% | -3% | -28 | CC(=O)c1nnn(-c2ccccc2C#N)c1C
0.2% | 3% | 5% | . | COc1ccc(/C(C)=N/NC2=NCCN2)cc1Cl
-2.0% | -2% | 5% | -22 | Cc1cc(C)n2nnnc2c1C#N
1.6% | . | -1% | . | Cc1nnc(NC(=O)C23CC4CC(C)(CC(C)(C4)C2)C3)s1
2.6% | 0% | 1% | -6 | O=C(c1cccc(F)c1)N1CCN(c2cc(N3CCCCC3)c(F)cc2[N+](=O)[O-])CC1
-5.0% | 11% | -8% | . | Cc1nnsc1C(=O)Nc1ccc(S(=O)(=O)N2CCCCC2C)cc1 (stereo unspecified)
3.3% | 5% | -5% | -7 | O=C(CCc1ccccc1)NC(=S)Nc1cc(C(F)(F)F)ccc1N1CCOCC1
-3.2% | 0%&-3% | -7% | -13&-3 | CCOC(=O)C1=C(C)NC(C)=C(C(=O)OCC)C1C
0.3% | 2% | -1% | 0 | CCc1nnc(SCc2cn3c(C)cc(C)nc3n2)n1N
4.0% | -3% | 4% | -5 | COc1ccc(N(C(C)C(=O)NN=C2CCCCCCC2)S(C)(=O)=O)cc1 (stereo unspecified)
3.3% | 10% | -1% | . | COC(=O)c1cc(-c2c(-c3cc(OC)c(OC)c(OC)c3)noc2C)cc([N+](=O)[O-])c1
-3.1% | -21% | 14% | . | Cc1ccc(-c2nc3cc(N)ccc3o2)cc1Br
-2.4% | . | 19% | . | Cc1ccc([C@H]2C(C(=O)O)=CC[C@@H](c3cccc(Cl)c3)N2S(=O)(=O)c2ccc(C)cc2)cc1
4.6% | -6% | 19% | -2 | Cc1cc(C=O)c(C)n1-c1ccc(Cl)c(C(=O)O)c1
14% | -17% | -2% | -6 | CC(C)CC(=O)NC(=S)Nc1ccc(NC(=O)c2ccco2)cc1
0.9% | -1% | -4% | 3 | Cc1ccc(NCC(=O)N/N=C\c2ccc[nH]2)cc1
2.5% | -15% | 6% | -1 | COc1cccc(/C=N/NC(=O)CCn2nnc3ccccc32)c1
-2.4% | 4% | 7% | -3 | CCO[C@@H]1OC(C(=O)Nc2ccccc2)=C[C@H](c2ccc(Br)cc2)[C@H]1CCCO
-0.4% | -7% | -3% | 11 | O=C(NCc1cccs1)c1ccc(Br)o1
2.7% | -2% | 18% | . | Cc1cc(C)cc(OCC(=O)Nc2nc(-c3cccnc3)cs2)c1
1.1% | -3% | 2% | . | O=C(NCCCN1CCOCC1)c1ccc2c(=O)n(Cc3ccc(Cl)cc3)c(=S)[nH]c2c1
-2.0% | 20% | -12% | . | COc1ccccc1C1c2[nH]c3ccccc3c2C[C@H]2C(=O)N(C3CCN(Cc4ccccc4)CC3)CC(=O)N12 (stereo partly specified)
-1.1% | 28% | 0% | 3 | CCOC(=O)C(C)Oc1cccc2c(=O)n(CC(=O)NCc3ccc(F)cc3)ccc12 (stereo unspecified)
3.3% | . | -9% | . | c1ccc(C[C@H]2CN=C(Nc3ccccc3)N2CCC2CCCC2)cc1
6.5% | . | 0% | . | COc1ccc(NC(=O)CN(C)C(=O)CC2CCCCC2)cc1
4.0% | -10% | 8% | -3 | Cc1ccc(-c2nnn(CCOc3cccc(Br)c3)n2)cc1
-0.8% | -2% | 8% | 4 | Cc1cc(C)n(S(=O)(=O)c2cccc(Cl)c2Cl)n1
? | 6% | -26% | -11 | Cc1cccc(-n2c(O)c(C=Nc3cccc(O)c3)c3ccccc3c2=O)n1
0.8% | -1% | -13% | 7 | COC(=O)c1nnn(CC(=O)Nc2cccc(Cl)c2)c1C(=O)OC
-4.8% | -7% | 22% | 5 | CCOC(=O)N1CCC(n2c(=S)[nH]c3ccccc3c2=O)CC1
-1.4% | 1% | 1% | 1 | Cc1ccc(Cn2c(C(=O)NCCCN3CCOCC3)cc3sccc32)cc1
1.4% | . | 15% | . | CC(=O)c1ccc(NC(=O)C(C)OC(=O)c2cccc(-n3cnnn3)c2)cc1 (stereo unspecified)
? | -35% | ? | 1 | Cc1cc(NC(=O)c2coc(=O)c(Br)c2)ccc1C(C)C
-0.5% | 0% | 1% | 4 | CC(O)CNC12CC3CC(CC(C3)C1)C2 (stereo unspecified)
-2.3% | -25% | 13% | -20 | CC(C)(C)c1cc(C(=O)NCc2cc(F)cc3c2OCOC3)n(Cc2ccccc2)n1
-1.1% | . | 17% | . | COC(=O)C(OC(=O)c1ccccc1)C(C)Br (stereo unspecified)
-3.4% | 0% | ? | . | CCOc1ccc(N2C(=O)Cc3ccccc3C2=O)cc1
4.2% | 28% | 1% | 6 | COc1ccc(NC(=O)C(=O)NCCC2=CCCCC2)c(OC)c1
11% | -55% | 1% | . | Cc1ccc(-n2ncc(Cl)c2C(=O)NCc2ccccc2)cc1
-4.2% | . | -2% | . | Cc1ccc(C(=O)NC(C)c2ccc(-n3ccnc3)cc2)cc1S(=O)(=O)N1CCOCC1 (stereo unspecified)

# Next part.
Rango complex inh | miR-21 reporter | Rango release inh | GLA inh pH 4.5 | Molecule
? | -11% | ? | -8 | N=C1/C(=C/c2ccc(-c3cccc(C(=O)O)c3)o2)C(=O)N=C2SC=C(c3ccccc3)N12
-1.4% | 2% | -5% | . | NC(=O)C1CCCN(C(=O)c2ccc3nc(Cc4cccc(Cl)c4)oc3c2)C1 (stereo unspecified)
-1.2% | -3% | -11% | -2 | Cc1ccc(S(=O)(=O)NCCC2(C(C)C)CCOC(C)(C)C2)cc1 (stereo unspecified)
2.2% | 7% | ? | -2 | CSc1ccccc1NC(=O)CN1CCCCC1C (stereo unspecified)
3.3% | 3% | -3% | 1 | CC1(C)OC(=O)C(=CSc2ccc(C(C)(C)C)cc2)C(=O)O1
-7.0% | . | 7% | . | COc1ccc(C2=NOC(Cn3nc(C(=O)NCc4ccco4)cc3-c3ccccc3)C2)cc1 (stereo unspecified)
0.5% | -2% | -2% | 4 | O=C(c1ccco1)N1CCN(C(=O)C2CCCN(S(=O)(=O)Cc3ccccc3)C2)CC1 (stereo unspecified)
? | -23% | -17% | -8 | Cc1cc(/C=C2\NC(=S)NC2=O)c(C)n1-c1cccnc1
-6.0% | -2% | 2% | 8 | CC1CCCN(c2nc3c(c(=O)n(C)c(=O)n3C)n2CCSc2nc3ccccc3o2)C1 (stereo unspecified)
-5.4% | . | -11% | . | CN(C(=O)C1CC1)C1CCS(=O)(=O)C1 (stereo unspecified)
-2.1% | -72% | -9% | -4 | Cc1nc2cc(NC(=O)C3COc4ccccc4O3)ccc2s1 (stereo unspecified)
-3.9% | -5% | -4% | 8 | COc1ccc(C(=O)n2nc(-c3ccco3)nc2N)cc1OC
-0.2% | 10% | 0% | . | Cc1ccc(OCCN(C)C(=O)C2CCC(=O)N(CC3CCCCC3)C2)cc1 (stereo unspecified)
2.0% | 0% | -24% | -1 | CCOc1ccc(-n2c(C)cc(/C=N\NC(=O)CC(=O)NC3CCCCC3)c2C)cc1
4.0% | -3% | -10% | 7 | COc1ccc(NC(=O)c2ccc3c(=O)n(Cc4ccco4)c(=S)[nH]c3c2)c(OC)c1
-6.3% | . | -8% | . | Cc1cccc(C)c1NC(=O)CN1CCN(CC(=O)c2cc(C)n(C3CC3)c2C)CC1
-0.9% | -4% | 18% | -4 | CC(=O)Nc1ccc(S(=O)(=O)N2CCN(S(=O)(=O)N3CCCCCC3)CC2)cc1
1.2% | -7% | 0% | 10 | COc1ccc(C(=O)COC(=O)CCN=C2NS(=O)(=O)c3ccccc32)cc1OC
4.8% | -5% | -18% | -6 | COC(=O)C(CCCCNC(=O)OCc1ccccc1)NC(=O)CN (stereo unspecified)
0.6% | 3% | -1% | -1 | CCOC(=O)c1c(NC(=O)c2cc(-c3ccc(Cl)s3)nc3ccccc23)sc(C(N)=O)c1C
-0.1% | -4% | 19% | 0 | COc1ccc(/C=N/NC(=O)c2ccn[nH]2)cc1Cn1nc(C)c([N+](=O)[O-])c1C
-0.9% | -3% | 0% | 0 | CCCC(=O)N(Cc1cc2cc(C)ccc2[nH]c1=O)c1ccccc1OC
? | -3% | -17% | 4 | CC(C)SCC(=O)Nc1ncc2c(n1)-c1ccccc1CC2
-4.7% | . | -1% | . | CNC(=O)COC(=O)C1CCN(S(=O)(=O)c2ccc3c(c2)OCCO3)CC1
-2.9% | 2% | 28% | . | Cc1ccc(NC(=O)CSCc2cc(=O)n3cc(C)sc3n2)c(C)c1
0.9% | . | -7% | . | COc1ccc(S(=O)(=O)N2CCCCC2)cc1NC(=O)COC(=O)c1ccco1
-0.9% | -1% | -6% | -2 | COc1ccc(/C(O)=C2/C(=O)C(=O)N(c3ncccn3)C2c2ccc(F)cc2)cc1 (stereo unspecified)
-2.3% | -11% | -26% | -5 | CCOc1ccc(/C=N/Nc2cc(C)nc(N3CCOCC3)n2)cc1

# These rows are one share of the data; the hit share may differ from the screen's.
